Compound activity: PubChem BioAssay, National Center for Advancing Translational Sciences (NCATS)
VDR inh: vitamin D3 receptor (human) inhibition; 0.93% of 400,000 active; VDR-SRC2-3 peptide fluorescence polarization, 2 h; Potency, µM, inactives show max response, negative = inhibition, most hits filed as inhibitors; active means well fitted inhibition curve with a large enough effect; inconclusive means small, poorly fitted or top-dose-only effect, or another doubt; inactive means no such curve, though single readings can be large or run the other way; further: series mostly up to about 120 µM
Target sequence (P11473 whole entry, looked up): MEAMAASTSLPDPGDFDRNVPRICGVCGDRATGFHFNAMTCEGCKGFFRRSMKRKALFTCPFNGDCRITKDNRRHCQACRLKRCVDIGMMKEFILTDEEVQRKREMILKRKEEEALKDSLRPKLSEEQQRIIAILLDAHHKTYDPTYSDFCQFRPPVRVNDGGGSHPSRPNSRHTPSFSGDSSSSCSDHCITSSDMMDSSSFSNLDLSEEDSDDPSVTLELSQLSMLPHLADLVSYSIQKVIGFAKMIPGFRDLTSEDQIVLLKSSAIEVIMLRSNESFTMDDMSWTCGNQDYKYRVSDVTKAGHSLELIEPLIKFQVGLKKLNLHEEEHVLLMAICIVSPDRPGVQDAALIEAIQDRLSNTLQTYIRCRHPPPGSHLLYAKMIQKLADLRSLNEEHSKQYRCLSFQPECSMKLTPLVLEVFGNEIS
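Fluorescence polarization assay measuring small-molecule disruption of VDR binding to the coregulator peptide SRC2-3. Compounds were pin-transferred (23 nl) into the reagent mix and incubated 2 h at room temperature before reading.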
* hit, by the source's call; u = inconclusive; & = joins results of further samples. On the % scale 0 is the no-effect control and ±100 the full control effect; potency means the concentration at half of the fitted maximal effect. Only part of the results is shown; rates above refer to the full screens.

molecule	VDR inh
C[C@H]1CCC[C@]2(O[C@H](CCO)C[C@@H](O)[C@@H]2O)O1	-21%
O=C(c1sc2ccccc2c1Cl)N1CCN(c2ccccc2F)CC1	9%
COc1ccc(CCNC(=O)CSc2ccc3ccccc3c2)cc1OC	u
O=C(CCCOc1ccccc1)Nc1cccc(S(=O)(=O)N2CCOCC2)c1	4%
CCN(CC)Cc1c(C(=O)N/N=C/c2ccc(OCc3ccccc3C)cc2)nnn1-c1nonc1N	-15%
CCOC(=O)c1cnc2nc(NCc3cccc(Br)c3)[nH]n2c1=O	11%
O=C1CCC(c2ccccc2)=NN1Cc1c(F)cccc1Cl	-4%
O=C1c2ccccc2NC(c2ccc(-c3ccc(F)cc3)o2)N1O (stereo not drawn)	u
CSc1nnc(C)c(/C=C/NOCc2cccc(F)c2)n1	-8%
CCOc1ccc(-n2c(=O)[nH]cc(C(=O)N3CCc4ccccc43)c2=O)cc1	8%
O=C(NCC(c1ccco1)N1CCN(c2ccc(F)cc2)CC1)c1cccs1 (stereo not drawn)	15%
CCC(=O)Nc1ccc(C(=O)CSc2nc(N)cc(N)n2)cc1	-4%
O=S(=O)(c1cccc(C(F)(F)F)c1)c1ccc(O)cn1	-20%
CCc1ccc(Nc2nnc(SC(C)C(=O)NC3CC3)s2)cc1 (stereo not drawn)	-8%
CCN(CC)c1ccc2c(-c3ccc(S(=O)(=O)O)cc3S(=O)(=O)[O-])c3ccc(=[N+](CC)CC)cc-3oc2c1	40µM*

3 entries out of the list above, arranged by the number in VDR inh, falling.
molecule	VDR inh
CCOC(=O)c1cnc2nc(NCc3cccc(Br)c3)[nH]n2c1=O	11%
CCC(=O)Nc1ccc(C(=O)CSc2nc(N)cc(N)n2)cc1	-4%
CCN(CC)Cc1c(C(=O)N/N=C/c2ccc(OCc3ccccc3C)cc2)nnn1-c1nonc1N	-15%

(listing goes on)
molecule	VDR inh
CN(CC(=O)Nc1ccc(F)c(F)c1)S(=O)(=O)c1cccs1	0%
COc1ccc2c(C)cc(SCC#N)nc2c1	4%
CCOC(=O)c1c(C)n(C)c2ccc(O)c(CN3CCC(C)CC3)c12	89µM*
CC(=O)Nc1ccc(C(=O)N(C2=NC(C)CS2)c2ccc(Cl)cc2)cc1 (stereo not drawn)	12%
COc1ccccc1CNC(=O)CCCOc1cc(=O)n(C)c2ccccc12	-5%
COC(=O)c1cc2oc3ccccc3c2n1CC(=O)Nc1ccc(OC)c(OC)c1OC	-7%
Nc1ccccc1C(=O)N(Cc1ccccc1)Cc1ccccc1	-21%
Cc1coc2c(C)c3oc(=O)c(CCC(=O)NCCc4ccccc4F)c(C)c3cc12	1%
O=C(c1cc(-c2ccccc2Cl)on1)N1CCN(C(=O)c2ccco2)CC1	-6%
COc1cccc(CN(CC(=O)NC2CCCCC2)C(=O)c2csnn2)c1	3%
CCOc1ccc2c(c1)c1nnc(SCC(=O)NC3CC3)nc1n2C	12%
Cc1ccc(N(C)C(=O)c2cc(S(=O)(=O)N3CCCC3)cn2C)cc1	-12%
COc1ccc(CN(Cc2cc3cc4c(cc3[nH]c2=O)OCO4)C(=O)NC2CCCCC2)cc1	1%
CC1(C)C(=O)C=C[C@@]2(C)C1C=C[C@@]1(C)C2CC[C@@]2(C)C(c3ccoc3)OC(=O)C3OC312 (stereo partly drawn)	3.5µM*
CCOC(=O)C(Cc1ccccc1)NC(=O)CCc1c(C)nc2c(c(C)nn2-c2ccc(C)c(C)c2)c1C (stereo not drawn)	11%

molecule	VDR inh
CC(CNC(=O)c1cccs1)c1ccc([N+](=O)[O-])cc1 (stereo not drawn)	-14%
COCCNC(=O)c1cc2c(s1)-c1ccc(Cl)cc1SC2	7%
N/C(=N\OC(=O)Oc1ccccc1)c1ccc(Br)cc1	5%
CCn1c(CNC(=O)C2CCCCC2)cc2ccccc21	6%
CCOC(=O)n1c(=O)oc2cc(S(=O)(=O)N3CCOCC3)ccc21	2%
O=C1CC2(CCOCC2)Oc2ccc3ccccc3c21	-21%
NCCC[C@@H](CC(=O)N[C@@H]1CCCC[C@H]1C(=O)N[C@H](CC(=O)N[C@@H](CCC(=O)O)CC(=O)O)Cc1c[nH]c2ccccc12)NC(=O)C[C@H](Cc1c[nH]c2ccccc12)NC(=O)[C@@H]1CCCC[C@H]1N	4%
Oc1ccc(/C=N/Nc2ccc3ccccc3c2)c(O)c1	u
O=C(CN1CCCC1c1cccs1)N1CCN(S(=O)(=O)c2ccccc2)CC1 (stereo not drawn)	-11%
CS(=O)(=O)N(CC(=O)N1CCc2ccccc2C1)c1ccc2c(c1)OCO2	4%
CC1=NN(C(=O)COc2ccccc2C)C(O)(c2ccc(Cl)cc2)C1 (stereo not drawn)	-3%
CNc1nc(N)c([N+](=O)[O-])c(N2CCCCCC2)n1	8%
CN(Cc1ccccc1)S(=O)(=O)c1ccc(Cl)c(C(=O)N2CCC(C(N)=O)CC2)c1	0%
CC(C)CCNS(=O)(=O)c1cc2c3c(c1)CCN3C(=O)CC2	8%
Cc1cccc2c(C(=O)O)cc(-c3cccnc3)nc12	12%

Continued; the last five above are carried over.
molecule	VDR inh
CC1=NN(C(=O)COc2ccccc2C)C(O)(c2ccc(Cl)cc2)C1 (stereo not drawn)	-3%
CNc1nc(N)c([N+](=O)[O-])c(N2CCCCCC2)n1	8%
CN(Cc1ccccc1)S(=O)(=O)c1ccc(Cl)c(C(=O)N2CCC(C(N)=O)CC2)c1	0%
CC(C)CCNS(=O)(=O)c1cc2c3c(c1)CCN3C(=O)CC2	8%
Cc1cccc2c(C(=O)O)cc(-c3cccnc3)nc12	12%
CC(CC(=O)Nc1ccc(Br)cc1F)S(=O)(=O)c1ccc2c(c1)NC(=O)CO2 (stereo not drawn)	0%&4%
O=C(O)Cn1c(=O)c2c3c(sc2n(Cc2ccc(F)cc2)c1=O)CCCC3	-11%
O=C1C2C(C(=O)N1c1ccc3c(c1)OCO3)C1C=CC2C12CC2 (stereo not drawn)	-14%
CCOC(=O)N1CCC(N2CCCC(C(=O)c3cccc(OC(C)C)c3)C2)CC1 (stereo not drawn)	2%
CCNS(=O)(=O)c1ccc(CCC(=O)Nc2ccccc2)cc1	-26%
Cc1nc(SCC(=O)NC2CCCCC2C)nc(C)c1C (stereo not drawn)	4%
COc1ccc(N=Cc2c(O)n(-c3ccc(OC)cc3)c(=O)c3ccccc23)cc1	11%
O=C(N/N=C/c1ccc([N+](=O)[O-])cc1)c1c[nH]c2ccccc12	-14%
COC(=O)c1cc(NC(=O)CN(c2cccc(OC)c2)S(=O)(=O)c2ccccc2)ccc1Cl	-15%
Cc1cc(C)n2nc(C(=O)N3CCCC(N4CCN(c5ccccc5C)CC4)C3)cc2n1 (stereo not drawn)	-3%
CCN(C[C@H]1N[C@@](C)(C(=O)OC)[C@H]2C(=O)N(C)C(=O)[C@@H]12)C(=O)Nc1ccccc1	-14%
O=C(NCc1ccc2c(c1)OCO2)c1nc(S(=O)(=O)Cc2ccccc2F)ncc1Cl	-11%
CCCC/C=C/[C@H](C)[C@@](C)(COC(=O)c1ccc(Br)cc1)Cc1ccccc1	4%
CS(=O)(=O)N(CC(=O)Nc1ccc(Cl)c(Cl)c1)C1CCCCC1	-2%
Cc1cc(NC(=O)CSc2nnnn2C2CCCC2)no1	21%

molecule	VDR inh
CCCS(=O)(=O)N1CCC(C(=O)NCCN(C)Cc2ccccc2)CC1	-2%
CC1=C(c2ccc(C)c(C)c2)S(=O)(=O)N=C1N1CCC(C(=O)Nc2cccc(F)c2)CC1	3%
CCOC(=O)N1CCC(NC(=O)C2CCCN(C(=O)N3CCOc4ccccc43)C2)CC1 (stereo not drawn)	10%
CSc1ccccc1NC(=O)CN(C)C(=O)CNc1ccc(C(F)(F)F)cc1[N+](=O)[O-]	-13%
COc1ccc(OC)c(/C=C2\SC(=S)N(NS(=O)(=O)c3ccc(C)cc3)C2=O)c1	u
CCOc1ccc2c(c1)sc(=NC(=O)C1CC1)n2C	11%
Cc1oc(-c2ccc(-c3ccccc3)cc2)nc1CN(CCO)C(C)C	10%
O=C(Nc1ccc(NC(=O)c2ccccc2Br)cc1)c1ccccc1	-19%
CCc1ccc(CN(C)C(=O)c2cc(COc3cccc4cnccc34)on2)cc1	-30%
COC(=O)c1ccsc1NC(=O)c1ccc2c(c1)OCCO2	-8%
COC(=O)c1[nH]c2ccc(C)cc2c1NS(=O)(=O)c1ccc(F)c(C)c1	-6%
O=C(Cc1ccc(Cl)cc1)NC1CCS(=O)(=O)C1 (stereo not drawn)	-2%
CCC(C)[C@H](NC(=O)C1CC(=O)N(c2ccc3c(c2)OCCO3)C1)C(=O)NC1CCCC1 (stereo partly drawn)	8%
COc1ccc(OCc2nnc(SCC(=O)N3CCCCC3)o2)cc1	2%
CCC(C)N(C(=O)CSc1nnc(C)n1C)C1CCS(=O)(=O)C1 (stereo not drawn)	2%

Six neighbouring entries out of the list so far, for reference:
molecule	VDR inh
CCCS(=O)(=O)N1CCC(C(=O)NCCN(C)Cc2ccccc2)CC1	-2%
CC1=C(c2ccc(C)c(C)c2)S(=O)(=O)N=C1N1CCC(C(=O)Nc2cccc(F)c2)CC1	3%
CCOC(=O)N1CCC(NC(=O)C2CCCN(C(=O)N3CCOc4ccccc43)C2)CC1 (stereo not drawn)	10%
CSc1ccccc1NC(=O)CN(C)C(=O)CNc1ccc(C(F)(F)F)cc1[N+](=O)[O-]	-13%
COc1ccc(OC)c(/C=C2\SC(=S)N(NS(=O)(=O)c3ccc(C)cc3)C2=O)c1	u
CCOc1ccc2c(c1)sc(=NC(=O)C1CC1)n2C	11%

The results go on.
molecule	VDR inh
Cc1cc(C)cc(-n2ncc3c2CCCC3NC(=O)CCCn2cncn2)c1 (stereo not drawn)	-7%
COc1ccc2cc3cc(C(=O)NCc4ccc(C)cc4)oc3nc2c1	-19%
COc1ccc(CNC(=O)c2cccc3c2C(=O)N(CC2CCCO2)C3)cc1 (stereo not drawn)	-2%
CC(=O)c1ccc(NC(=O)C2CCN(S(=O)(=O)c3c(C)noc3/C=C/c3ccc(C)cc3)CC2)cc1	-1%
COc1ccc(NS(=O)(=O)c2cccc(NC(=O)CNC(C)=O)c2)cc1	0%
Cn1nnc2c(sc3nc(N4CCOCC4)c4c(c32)CCCC4)c1=O	-12%
CC1CCCCC1NC(=O)CN1C(=O)NC(C)(c2cccc(Br)c2)C1=O (stereo not drawn)	4%
O=C(CCl)NC1(C(F)(F)F)C(=O)Nc2c1c(=O)[nH]c(=O)n2-c1ccccc1 (stereo not drawn)	-13%
COc1ccc(C2CC2/C(=N/O)c2ccccc2)cc1 (stereo not drawn)	20µM*
Cc1ccc(NC(=O)Cn2c(C)cc(C)c(C#N)c2=O)c(Cl)c1	-2%
Cn1c(=O)c(=O)n(C)c2cc(N3CCCC3)c(NC(=O)c3ccccc3F)cc21	8%
Clc1ccc(N2CCN(c3ccnc(Cl)n3)CC2)cc1	10%
COc1ccc(N2CCN(C(CNC(=O)c3ccc(OC)c(OC)c3)c3cccnc3)CC2)cc1 (stereo not drawn)	10%
COc1ccc(CCNC(=O)CSC2=NS(=O)(=O)c3ccccc3N2)cc1OC	-19%
Cn1c(SCC(N)=O)nc2c([nH]c3ccccc32)c1=O	4%

molecule	VDR inh
O=C(Nc1ccc(Cl)c(Cl)c1)c1ccc(Cl)c(Cl)c1	-11%
CCOc1ccc(S(=O)(=O)NC2CCCCC2C)cc1 (stereo not drawn)	-4%
CC(=O)c1sc(N2C(=O)c3oc4ccccc4c(=O)c3C2c2ccc(C)cc2)nc1C (stereo not drawn)	-8%
CCCCNc1nc2c(c(=O)n(C)c(=O)n2C)n1CC(O)COc1ccccc1C (stereo not drawn)	-19%
CCOc1ccc(CCNC(=O)CCS(=O)(=O)c2ccc(C)cc2)cc1OCC	11%
CN(C)c1cc(N/N=C/c2ccccc2C(F)(F)F)nc(N(C)C)n1	-4%
CCOC(=O)c1nnn(-c2nonc2N)c1CSc1ccccc1	-4%
NC(=S)NN=C(c1ccccc1)c1ccccc1	1%
CN1C(=O)NC(c2ccccc2)C2=C1CN(CCc1ccccc1)C2=O (stereo not drawn)	4%
COc1ccc2nc(C)c(C(=O)NN)cc2c1	4%
COc1ccc(C(=O)Oc2cccc(Nc3ncnc4ccccc34)c2)cc1OC	11%
Nc1ccc(C(=O)c2cccs2)cc1[N+](=O)[O-]	-6%
COC(=O)c1ccc(C)c(NS(=O)(=O)c2ccc(OC)c(OC)c2)c1	-14%
O=C(CSc1ccc(-c2ccncc2)nn1)c1ccc(Cl)cc1	-1%
O=C(Nc1cc(Cl)ccc1N1CCOCC1)c1ccc(N2CCCC2=O)cc1	-7%

molecule	VDR inh
O=C(NCc1cccs1)C(=O)c1cn(CC(=O)N2CCCC2)c2ccccc12	-28%
CN1CCc2c(sc3nc(SCC(=O)N4CCCCC4)n(-c4ccccc4)c(=O)c23)C1	-15%
COc1cc(/C=C(\C#N)c2nc3ccccc3[nH]2)ccc1OC(=O)c1ccco1	-11%
O=C(Nc1cccc(Cl)c1)c1cccc(Oc2ccc([N+](=O)[O-])cc2Cl)c1	10%
COCc1nc2oc3ccc(C)cc3c(=O)c2cc1C(=O)OC	1%
Cc1ccccc1C(C)NS(=O)(=O)c1ccc2c(c1)OCCO2 (stereo not drawn)	2%
CCn1cnc2c1c(=O)n(Cc1nnc3n1-c1ccccc1SC3)c(=O)n2Cc1ccccc1	2%
Nc1nnc(CSCc2ccccc2Cl)s1	12%
O=C(O)CC(NC(=O)COc1ccc(Cl)cc1Cl)C(=O)O (stereo not drawn)	-3%
Cc1ccc(NS(=O)(=O)c2ccc(Br)s2)nc1	0%
